Compound activity deposited in PubChem BioAssay by several laboratories.
RanGTP-Imp inh = inhibitors of RanGTP-importin-beta interaction, primary screen, biochemical, FRET, CFP-Ran, YFP-importin-beta, homogeneous; 300,000 tested, 1.1% active; AID 2216; cell-free CFP-Ran/YFP-importin-beta FRET ratio; inhibition, % (test concentration not listed);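 active = most replicates above 15%; inconclusive = exactly half above 15%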;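 also: 0% = DMSO wells and 100% = Ran loaded with GDP instead of GTP; wells of about 40 µL received 100 nL stock; the first replicate is given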
Calb FLC = affects C. albicans growth with fluconazole. C. albicans CaCi-2 (fluconazole-resistant clinical isolate) + fluconazole, Alamar Blue growth, 48 h. growth inhibition, % (concentration not given with the values). 300,000 tested, 0.57% active;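 active = most replicates above 75%; inconclusive = exactly half above 75%; inactive = most below 75%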;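 also: all wells also contain fluconazole at 8 µg/ml as a sub-toxic cotreatment; 0% = median of DMSO wells and 100% = median of geldanamycin control wells; wells of about 8 µL received 7.5 nL stock; the first replicate is given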
A1 inh = inhibitors of the anti-apoptotic protein A1, read as caspase activation; caspase activation, % (no concentration beside the values); MEF A1-2A-BIM cells, Caspase-Glo 3/7 luminescence, 3 h; percent of clofoctol response, vehicle zero; 330,000 tested, 0.066% active;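 active = over half of replicate activation scores above 10%, or exactly half above 10 with the replicate mean above 10; inconclusive = replicate mean below 10 yet half the replicates above 10; inactive = over half of replicates below 10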;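 also: wells of about 30 µL received 50 nL stock; many hits fall short of the cut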
T cruzi inh = T. cruzi replication inhibition; AID 1885; T. cruzi beta-gal in NIH3T3, luminescence, 90 h; inhibition, % (test concentration not listed); 300,000 tested, 1.4% active;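 active = mean inhibition across valid replicates above about 55%, limit read from the data; inconclusive = mean below that limit but half or more replicates reach it; inactive = mean below it, under half of replicates reach it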;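 also: signal also drops with host cell toxicity which is not excluded here; 0% = plate median of DMSO wells and 100% = zero luminescence signal; higher percent means less beta-gal luminescence so fewer parasites; stock transfer was 50 nL into about 50 µL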
Beta2AR agonist = human beta-2 adrenergic receptor agonism by FAP. Am2.2-beta2AR cells, FAP receptor internalization, flow cytometry; reference of the scale not given here. response, % (no concentration beside the values). 340,000 tested, 0.43% active. AID 504454;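 active = response above a set limit, near 3 SD of response in nonfluorescent compounds, cut at about 42% in these data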;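 also: stock transfer was 100 nL into about 11 µL; a reference agonist was the positive control; negative values mostly stem from fluorescent compounds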
UCH37 inh = inhibitors of human deubiquitinating enzyme UCH37. purified proteasome/UCH37, Ub-AMC cleavage fluorescence. 330,000 tested, 0.33% active. inhibition, % (concentration not given with the values). AID 588478;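 active = mean of two replicates above 20%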;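 also: 0% = compound-free wells with enzyme and 100% = wells lacking proteasome; stock transfer was 100 nL into about 20 µL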
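Reagent: Ub-AMC substrate; assay system: Proteasome-associated human UCH37 deubiquitinase; controls: no-proteasome and no-compound wells; read-out: % inhibition of Ub-AMC cleavage fluorescence; timing: 30 min preincubation with enzyme, 25 min cleavage at room temperature; signal: AMC fluorescence from Ub-AMC cleavage, excitation 355 nm, emission 460 nm; buffer or medium: Tris-HCl pH 7.4 plus ovalbumin, ATP-MgCl2, DTT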
LANA-H2B inh = blocks KSHV LANA binding to histone H2A/H2B. Q9QR71. cell-free LANA-H2A/H2B peptide, fluorescence polarization. inhibition, % (no concentration beside the values). 320,000 tested, 0.6% active; in the data active = inhibition mostly above about 10%, no sharp cut-off; inactive = mostly below about 6.7%;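 also: stock transfer was 7.5 nL into about 10 µL; 0% = median of vehicle wells and 100% = median of positive control wells; one replicate is shown; the record names a cut of 25% in any replicate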
Target sequence (Q9QR71 whole entry, looked up): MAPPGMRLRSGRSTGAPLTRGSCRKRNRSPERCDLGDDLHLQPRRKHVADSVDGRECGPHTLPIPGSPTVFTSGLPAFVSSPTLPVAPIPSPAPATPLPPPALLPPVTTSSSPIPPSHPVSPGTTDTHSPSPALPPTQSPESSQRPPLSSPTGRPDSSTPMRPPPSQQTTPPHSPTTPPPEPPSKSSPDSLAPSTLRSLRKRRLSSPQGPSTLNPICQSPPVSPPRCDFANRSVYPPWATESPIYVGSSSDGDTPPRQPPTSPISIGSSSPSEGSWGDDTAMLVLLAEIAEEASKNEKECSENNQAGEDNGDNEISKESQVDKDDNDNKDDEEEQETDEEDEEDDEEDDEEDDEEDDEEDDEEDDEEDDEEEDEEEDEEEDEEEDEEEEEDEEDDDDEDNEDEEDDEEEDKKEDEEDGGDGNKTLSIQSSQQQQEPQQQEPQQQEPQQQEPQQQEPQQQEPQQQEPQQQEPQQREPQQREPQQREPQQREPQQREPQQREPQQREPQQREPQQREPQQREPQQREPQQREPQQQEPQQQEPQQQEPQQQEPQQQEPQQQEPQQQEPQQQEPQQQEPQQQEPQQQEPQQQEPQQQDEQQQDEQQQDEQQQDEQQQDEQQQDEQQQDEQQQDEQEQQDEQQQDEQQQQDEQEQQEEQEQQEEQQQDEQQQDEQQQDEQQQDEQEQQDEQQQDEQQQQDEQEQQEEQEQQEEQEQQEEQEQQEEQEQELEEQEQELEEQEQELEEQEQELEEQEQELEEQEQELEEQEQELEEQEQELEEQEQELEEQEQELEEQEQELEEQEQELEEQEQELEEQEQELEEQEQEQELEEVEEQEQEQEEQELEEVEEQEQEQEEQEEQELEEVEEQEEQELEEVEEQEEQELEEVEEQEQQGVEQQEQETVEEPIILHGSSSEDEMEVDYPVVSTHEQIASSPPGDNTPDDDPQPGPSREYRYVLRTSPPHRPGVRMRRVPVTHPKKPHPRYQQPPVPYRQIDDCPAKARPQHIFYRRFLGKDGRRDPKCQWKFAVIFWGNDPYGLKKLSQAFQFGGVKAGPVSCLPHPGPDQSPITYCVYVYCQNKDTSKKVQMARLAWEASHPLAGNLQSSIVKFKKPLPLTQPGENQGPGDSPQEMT
Beta cell apopt = beta cell apoptosis inhibition; INS-1E cytokine-induced death, ATP luminescence, 48 h; percent of positive-control rescue, neutral wells zero; protection from apoptosis, % (concentration not given with the values); 300,000 tested, 0.8% active;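 active = all replicates at 75% or more, or half of them and the mean; inconclusive = half reach 75% but not the mean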;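 also: 0% = cytokine-treated negative control wells and 100% = positive control rescue; higher means more ATP so stronger rescue from cytokine killing; wells of about 40 µL received 100 nL stock; the first replicate is given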
* hit, by the source's call; i = inactive; ? = inconclusive; . = no result given.

[1] CCOC(=O)C1CCN(C(=O)Cn2cnc3sc(C)c(S(=O)(=O)N4CCC(C)CC4)c3c2=O)CC1
[2] COc1cccc(-c2noc(Cn3nc(C(=O)O)c4ccccc4c3=O)n2)c1
[3] COc1ccc(Br)cc1CN1CCN(C(=O)c2ccc(OC)c(OC)c2)CC1
[4] Nc1cc(Cl)ccc1Oc1ccccc1
[5] CCc1nc2c(c(=O)c3ccccc3n2C)c(=O)n1-c1ccc(F)cc1
[6] Cc1nn(CC(=O)NC2CCS(=O)(=O)C2)c(C)c1S(=O)(=O)N(C)C (stereo not given)
[7] c1ccc(CSc2ncccn2)cc1
[8] COc1ccc(Cl)cc1NC(=O)Cn1cccc1
[9] CC(C(=O)O)n1nc(-c2ccccc2)c2ccccc21 (stereo not given)
[10] Cc1sc2ncnc(N3CCCC(C)C3)c2c1C (stereo not given)

Assay by compound	1	2	3	4	5	6	7	8	9	10
RanGTP-Imp inh	0.2	0.0	-3.4	3.0	-3.1	.	-1.8	-1.6	0.1	-3.8
Calb FLC	-4	-2	-5	-26	10	.	-17	-31	-3	45
A1 inh	1.4	-0.9	0.6	-0.2	-0.1	0.9	0.7	0.6	-0.3	0.1
T cruzi inh	17	-17	-3	8	17	.	-11	-16	-3	3
Beta2AR agonist	0	7	-9	-5	-11	-11	-5	-2	6	-8
UCH37 inh	1.6	3.6	2.2	0.8	6.2	-2.3	2.2	-0.5	0.8	2.1
LANA-H2B inh	-6.7	-7.8	2.6	-7.5	-1.5	-2.9	-1.9	4.1	3.6	-177
Beta cell apopt	-6	-6	-6	-3	5	-4	-2	-7	-4	-3

[11] Cc1onc(-c2ccccc2Cl)c1C(=O)O/N=C(\N)c1ccc([N+](=O)[O-])o1
[12] CC(=O)Nc1ccc(S(=O)(=O)NCc2ccc(C(=O)N3CCOCC3)cc2)cc1
[13] O=C(O)c1cccc(CSc2nc(-c3ccccc3)cc(C(F)(F)F)n2)c1
[14] COc1ccc(C(=O)N/C(=C\c2cccc3ccccc23)C(=O)N2CCN(C)CC2)cc1OC
[15] CC(=O)Nc1ccc(S(=O)(=O)N(C)CC(=O)OCC(=O)N(CC(C)C)C2CCS(=O)(=O)C2)cc1 (stereo not given)
[16] O=S(=O)(/N=C/N1CCOCC1)c1ccc(Cl)cc1
[17] CCOc1ccccc1NC(=O)Nn1cnnc1
[18] CCCCCCNC(=O)N[C@@H](C(=O)NCCC[C@H]1CN2C(=NC[C@@H]2Cc2ccccc2)N1CCc1cccc(OC)c1)C(C)C
[19] Cc1ccc(S(=O)(=O)N(C)C)cc1NC(=O)c1ccncc1
[20] CC(=O)c1sc(-c2ccccn2)nc1C

Assay by compound	11	12	13	14	15	16	17	18	19	20
RanGTP-Imp inh	-0.9	17	-0.8	-1.3	0.7	3.2	3.2	1.8	2.5	-1.9
Calb FLC	-3	-5	?	19	-2	-4	-17	3	-10	-2
A1 inh	-1.0	0.7	1.3	-0.1	0.0	0.1	0.1	-1.7	0.8	0.9
T cruzi inh	35	-5	-26	-1	-13	-6	8	15	-12	-1
Beta2AR agonist	3	-1	4	-1	2	1	-5	.	-6	.
UCH37 inh	.	-1.5	3.7	7.6	0.2	.	-0.8	-0.3	1.3	7.4
LANA-H2B inh	5.4	-1.2	.	-3.1	0.0	2.1	-5.6	3.4	-0.6	-0.7
Beta cell apopt	68	1	0	1	-2	1	1	10	2	6

[21] CCN1CCN(CC(=O)Nc2cc(C(F)(F)F)ccc2OCCOC)CC1
[22] Cc1ccccc1-c1n[nH]c(=S)n1Cc1ccccc1
[23] Cc1cccc(-c2ccc3ncnc(NCc4cccs4)c3c2)c1
[24] COc1ccc(C(CNC(=O)c2cccc(S(=O)(=O)Nc3ccccc3Cl)c2)N2CCOCC2)cc1 (stereo not given)
[25] COc1cccc(OC)c1C(=O)N1CCN(Cc2cccnc2)CC1
[26] CCc1ccc(NC(=O)c2cccnc2)cc1
[27] OC1CN=C2Sc3ccccc3N2C1 (stereo not given)
[28] O=C(Cn1cnc2sc3c(c2c1=O)CCCC3)NCC(=O)Nc1ccccc1F
[29] Cc1cccc(OCC(=O)Nc2ccc3c(c2)nc(CCN2CCCCC2)n3C)c1
[30] COC(=O)c1cccc(NC(=O)c2nn(C)c(=O)c3ccccc23)c1

Assay by compound	21	22	23	24	25	26	27	28	29	30
RanGTP-Imp inh	-1.7	6.6	.	11	?	-3.1	-0.5	-4.2	-2.7	-1.0
Calb FLC	2	14	.	6	0	5	6	0	.	5
A1 inh	-0.2	-0.4	0.3	-0.2	2.7	-2.3	0.9	0.1	0.3	0.1
T cruzi inh	8	8	.	18	4	-17	-14	-7	25	-4
Beta2AR agonist	-8	4	1	22	-10	2	12	-9	5	2
UCH37 inh	1.5	6.0	-1.5	-16	.	4.5	1.6	-0.4	2.1	3.4
LANA-H2B inh	0.3	-1.1	0.5	-1.0	2.9	-4.6	0.7	-0.3	-2.0	-3.7
Beta cell apopt	9	0	34	14	0	27	-2	-1	0	3

[31] O=C(C1CCCO1)N1CCC(O)(c2ccccc2)CC1 (stereo not given)
[32] Cc1ccc(C(=O)OCc2c(C)noc2C)cc1NC(=O)c1ccco1
[33] N#Cc1ccc(-n2c(-c3ccccc3)nnc2-c2ccccc2)cc1C#N
[34] Cc1ccc(-n2nnnc2SCC(=O)c2c(N)n(C3CC3)c(=O)[nH]c2=O)c(C)c1
[35] COc1cc(NC(=O)c2ccc3c(SCC(=O)O)c4c(nc3c2)CCCC4)cc(OC)c1OC
[36] COc1ccc(C2N3CC4(C)CN2CC(C)(C3)C4=O)cc1OC (stereo not given)
[37] CC1=CC(c2ccccc2)n2nc(N3C(=O)C4CC=CCC4C3=O)nc2N1 (stereo not given)
[38] COc1cccc(-c2cc(C(=O)Nc3cccnc3)c3ccccc3n2)c1
[39] Cc1cccc(NC(=O)c2cccc(OC(=S)N3CCOCC3)c2)c1
[40] Cc1cccc(OCC(=O)Nc2ccc(S(=O)(=O)Nc3cc(C)nc(C)n3)cc2)c1

Assay by compound	31	32	33	34	35	36	37	38	39	40
RanGTP-Imp inh	9.4	-0.7	0.5	.	-6.5	1.4	0.4	?	-1.8	-1.6
Calb FLC	-1	22	10	.	4	-8	1	14	10	26
A1 inh	-1.2	0.0	-0.6	-0.4	-0.3	-0.1	0.8	-0.3	-5.4	-1.0
T cruzi inh	-1	5	15	.	12	6	-14	-12	-2	8
Beta2AR agonist	3	-4	-10	-1	-4	-1	8	31	7	6
UCH37 inh	0.6	2.3	-18	3.5	7.2	0.9	i	2.1	4.1	1.6
LANA-H2B inh	0.1	-6.2	0.9	4.9	-1.5	-13	3.5	-13	1.7	4.3
Beta cell apopt	-6	-2	2	2	1	-3	-2	6	3	-1

[41] CCOC(=O)c1nn(-c2ccc(F)cc2)c(=O)cc1OCC(=O)N1CCN(c2ccccc2)CC1
[42] CCN(CC)S(=O)(=O)c1cc(NC(=O)COC(=O)c2sc3ccccc3c2Cl)ccc1C
[43] Cc1ccc(CNC(=O)CN(C)S(=O)(=O)c2cccs2)cc1
[44] Cc1cccc(NC(=S)NC(=O)/C=C/c2ccco2)c1
[45] O=C(N/N=C/c1ccccc1)C(=O)N/N=C/c1ccccc1
[46] Cc1nnc(SCC(=O)N(CC(C)C)C2CCS(=O)(=O)C2)n1N (stereo not given)
[47] Cc1ccc(-c2cc(C(F)F)nc(NCc3cccnc3)n2)cc1
[48] COc1cccc(N2CCN(C(=S)NCc3ccco3)CC2)c1
[49] COc1ccccc1NC(=O)CN1C(=O)CCS(=O)(=O)c2ccccc21
[50] O=S(=O)(c1ccc(C(F)(F)F)cc1)N1CCN(CCc2ccccc2)CC1

Assay by compound	41	42	43	44	45	46	47	48	49	50
RanGTP-Imp inh	-5.4	-2.3	0.5	-3.9	-1.6	.	0.9	-2.0	-4.4	9.5
Calb FLC	-4	-1	-3	-23	5	.	?	-5	-3	-1
A1 inh	-0.6	-0.3	0.0	1.3	-1.1	0.1	-0.7	-0.1	0.8	-0.1
T cruzi inh	-6	7	3	-45	-2	.	60*	5	-7	39
Beta2AR agonist	0	9	-1	1	5	-5	-4	-2	1	-2
UCH37 inh	5.0	-1.1	2.7	3.0	.	0.3	-21	0.9	1.9	1.0
LANA-H2B inh	.	-2.0	-0.7	-9.2	6.6	1.1	0.5	0.9	-1.0	-3.7
Beta cell apopt	0	0	2	1	-6	-7	8	-1	-8	3

Of the compounds above, seven contain fluorine:
[5] CCc1nc2c(c(=O)c3ccccc3n2C)c(=O)n1-c1ccc(F)cc1
[13] O=C(O)c1cccc(CSc2nc(-c3ccccc3)cc(C(F)(F)F)n2)c1
[21] CCN1CCN(CC(=O)Nc2cc(C(F)(F)F)ccc2OCCOC)CC1
[28] O=C(Cn1cnc2sc3c(c2c1=O)CCCC3)NCC(=O)Nc1ccccc1F
[41] CCOC(=O)c1nn(-c2ccc(F)cc2)c(=O)cc1OCC(=O)N1CCN(c2ccccc2)CC1
[47] Cc1ccc(-c2cc(C(F)F)nc(NCc3cccnc3)n2)cc1
[50] O=S(=O)(c1ccc(C(F)(F)F)cc1)N1CCN(CCc2ccccc2)CC1

Assay by compound	5	13	21	28	41	47	50
RanGTP-Imp inh	-3.1	-0.8	-1.7	-4.2	-5.4	0.9	9.5
Calb FLC	10	?	2	0	-4	?	-1
A1 inh	-0.1	1.3	-0.2	0.1	-0.6	-0.7	-0.1
T cruzi inh	17	-26	8	-7	-6	60*	39
Beta2AR agonist	-11	4	-8	-9	0	-4	-2
UCH37 inh	6.2	3.7	1.5	-0.4	5.0	-21	1.0
LANA-H2B inh	-1.5	.	0.3	-0.3	.	0.5	-3.7
Beta cell apopt	5	0	9	-1	0	8	3

Sorted by length of the SMILES (highest first): 3 of the compounds above.
[50] O=S(=O)(c1ccc(C(F)(F)F)cc1)N1CCN(CCc2ccccc2)CC1
[22] Cc1ccccc1-c1n[nH]c(=S)n1Cc1ccccc1
[8] COc1ccc(Cl)cc1NC(=O)Cn1cccc1

Assay by compound	50	22	8
RanGTP-Imp inh	9.5	6.6	-1.6
Calb FLC	-1	14	-31
A1 inh	-0.1	-0.4	0.6
T cruzi inh	39	8	-16
Beta2AR agonist	-2	4	-2
UCH37 inh	1.0	6.0	-0.5
LANA-H2B inh	-3.7	-1.1	4.1
Beta cell apopt	3	0	-7
